# Sfp inh: inhibitors of Bacillus subtilis Sfp phosphopantetheinyl transferase | 3.5% of 310,000 active | Biochemical Sfp PPTase activity, qHTS | Potency, µM, without a hit: max response, negative = inhibition, actives largely listed as inhibitors | Q9F4F7; active means well fitted inhibition curve with a large enough effect; inconclusive means small, poorly fitted or top-dose-only effect, or another doubt; inactive means no such curve, though single readings can be large or run the other way;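 further: the enzyme is Sfp with the accession as filed and its product quenches rhodamine fluorescence; potency means the concentration at half of the fitted maximal effect; 0% = enzyme reaction without inhibitor and -100% = no enzyme wells; top concentration of the series not given in the record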
#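 Fluorescence-quenching assay: 15 nM Sfp-PPTase preincubated 15 min at room temperature with compound, then 5 uM rhodamine-CoA and 12.5 uM BHQ-2-labelled YbbR peptide added. Fluorescence (ex 525/em 598 nm) read at start and after 30 min; difference gives rate.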
# Menin-MLL FL inh: displaces fluorescein MLL peptide from human menin; FP activity change, % at 61.4 µM; Fluorescence polarization, fluorescein-MLL peptide displacement from menin; 290,000 tested, under 10 active; AID 1766; inconclusive = falling polarisation curve, or a change in total fluorescence; inactive = total fluorescence flat and polarisation flat or rising; no compound was filed as active; the % refers to the polarisation; negative = inhibition;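 further: % of control where 0% means no effect; inhibitors lower the polarisation; unlabelled MLL peptide was the positive control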
# The depositor's hits bear a star; ? = inconclusive; & = joins results of further samples; [ ] = remark or other dose.
# Each structure is followed by: Menin-MLL FL inh	Sfp inh
- O=C(COC(=O)c1sc2cc(Cl)ccc2c1Cl)Nc1ncc(Cl)cc1Cl
  4.1	-0.3%
- COc1ccc2c(c1)O[C@@H](c1ccc3c(c1)OCO3)[C@H](OC(=O)Nc1ccc(OC(F)F)cc1)C2=O
  -3.9	26.7%
- COc1ccc(Nc2nc(Cl)nc(N3CCN(c4ccc(OC)cc4)CC3)n2)cc1
  -7.3	2.8%
- CCCCCCc1cc2cc(C(N)=O)c(=N)oc2cc1O
  ?	-22.6%
- COC(=O)C1=C(C(=O)OC)[C@@H]2N(C)c3ccccc3[C@@]23C[C@@H](C(=O)OC)N(S(=O)(=O)c2ccc4c(c2)OCCN4C)C3=N1
  -1.1[11.7 µM]	4.7%
- COC(=O)[C@@]1(Cc2ccccc2)[C@H]2c3cc(C(=O)N(C)C)n(CCO)c3C[C@H]2CN1C(=O)c1ccccc1
  0.1	27.8%
- O=C1OCCC=C1[C@@H](O)CCc1ccccc1
  -0.7[11.7 µM]	14.8%
- CC(C)(C)NC[C@H](O)COc1cccc2[nH]c(=O)[nH]c12
  ?	9.7%
- CN1CCC(=O)N(C(CSc2ccc(Br)cc2)Cc2ccccc2)CC1 (stereo not given)
  -6.2	-11.5%
- CCC(C(=O)OCC(=O)Nc1cccc(S(=O)(=O)NC2=NCCCCC2)c1)c1ccccc1 (stereo not given)
  1.6	8.2%
- O=C(NS(=O)(=O)c1ccc(F)cc1)O[C@@H]1C(=O)c2cc(Br)ccc2O[C@H]1c1ccc2c(c1)OCO2
  ?	-10.4%
- COC(=O)[C@@H]1C[C@H]1[C@@H](NC(=O)Oc1ccc(F)cc1)c1ccccc1
  -1.9	9.1%
- CSc1cccc(NC(=O)c2ccccn2)c1
  -2.7	-5.8%
- CC(C)C(NS(=O)(=O)c1ccc(-c2ccc(Br)cc2)cc1)C(=O)O (stereo not given)
  -1.1	4.7%
- CC1CCc2c(sc3ncnc(SCC(=O)N4CCN(C(=O)c5ccco5)CC4)c23)C1 (stereo not given)
  1.1	6.6%
- CC(C1OC(C)(C)C(O)C1O)C1CC[C@@]2(C)C3=CCC4C(C)(C)C(=O)CC[C@]4(C)C3CC[C@@]12C (stereo not given in full)
  3.6	5.5%
- O=C1C[C@@H](O)[C@@H](O)[C@H]2[C@@H]3C(=O)N(Cc4ccc5c(c4)OCO5)C(=O)[C@@H]3CC[C@H]12
  4.7&0.1[11.7 µM]	7.9%&15.6%
- COc1ccc(-n2c(NC(=O)c3ccc(Br)o3)c(C#N)c3nc4ccccc4nc32)cc1
  ?	-28.2%
- COc1cc2oc(=O)cc(-c3ccc(-c4sccc4C=O)cc3)c2c(OC)c1OC
  -4.1	18.1%
- CCN(CC)C(=O)CC(c1ccc(OC)cc1)c1c(OC)cc(OC)c2c(-c3ccccc3)cc(=O)oc12 (stereo not given)
  -2.5	-8.8%

# The results go on.
# Each structure is followed by: Menin-MLL FL inh	Sfp inh
- CCN1C(C)=C(C(=O)OC)C(c2ccccc2)N2C(=O)[C@@]3(C(=O)OC)O[C@@]12C1C(=O)N(C)C(=O)C13 (stereo not given in full)
  -1.1[11.7 µM]	-7.0%
- CC(=O)[C@H]1[C@H](c2cccc(Cl)c2)C(C#N)(C#N)[C@@H]2c3ccccc3C=CN21
  ?	-14.2%
- COc1cc(C)c(Cl)cc1S(=O)(=O)NCc1ccncc1
  0.3	14.4%
- COc1ccc(O[C@H]2C=C[C@@H](c3ccccc3)O[C@H]2COC(=O)CC/C(C)=N/O[C@@H]2O[C@H](COC(C)=O)[C@H](OC(C)=O)[C@H](OC(C)=O)[C@H]2OC(C)=O)cc1
  -2.9[11.7 µM]	4.3%
- Cc1cc(O)cc2c1O[C@](C)(CCC[C@H](C)CCC[C@H](C)CCCC(C)C)CC2
  -1.2&0.8	-11.1%&16.1%
- NC(=O)N[C@H]1NC(=O)NC1=O
  3.8[24.8 µM]	4.8%
- CC(=O)OC[C@@H]1O[C@H](C/C=N\O[C@@H](C)CN2CCCc3nc(C)c(C)cc32)C=C[C@@H]1OC(C)=O
  -2.7[11.7 µM]	-7.0%
- Cc1ccc2c(C)nc(NC3=NCN(CCc4ccccc4)CN3)nc2c1
  2.9	2.1%
- COc1ccc(NC(=O)N2CCc3nc(COc4ccccc4)c4c(c3C2)CO[C@@H](C)C4)cc1
  -0.2[11.7 µM]	-0.5%
- Cc1ccc(C2=[N+]([O-])C3(CCCCC/C3=N\NC(N)=S)N(O)C2(C)C)o1 (stereo not given)
  1.6	70.8µM*
- COc1ccc(C2C(C(C)=O)=C(O)C(=O)N2CCN(C)C)cc1OC (stereo not given)
  -1.8	13.5%
- COc1cc2[nH]c(=S)nc(NC3CCCC3)c2cc1OC
  0.1	-19.9%
- CCc1ncnc2cc(OC)c(OC)cc12
  0.7	-11.3%
- COC(=O)c1ccc(/C=N/Nc2nc(-c3ccc(Cl)cc3Cl)cs2)cc1
  -2.8	10.3%
- COc1cc2c(cc1OC)[C@@H]1C(=O)c3ccc4c(c3O[C@@H]1CO2)C=CC(C)(C)O4
  -0.5	?
- CCCCCCCCCCOCCC(=O)O
  -1.1	10.5%&12.0%
- CC(C)(C)C(=O)OCOP(=O)(COCCn1cnc2c(N)ncnc21)OCOC(=O)C(C)(C)C
  1.3	56.2µM*
- CCCn1c(C)nc2c(NCc3ccccc3)nc(C)nc21
  4.9	8.0%
- O=C1Nc2ccc(I)cc2/C1=C/c1cc(Br)c(O)c(Br)c1
  ?	?
- CCn1c(-c2ccc(F)cc2)cnc1SCC(=O)N1CCCCC1C (stereo not given)
  0.8	4.4%

# Compound profiles (already shown).
# `COc1ccc(C2C(C(C)=O)=C(O)C(=O)N2CCN(C)C)cc1OC` (stereo not given) is listed with Menin-MLL FL inh: -1.8; Sfp inh: 13.5%
# `CC(=O)OC[C@@H]1O[C@H](C/C=N\O[C@@H](C)CN2CCCc3nc(C)c(C)cc32)C=C[C@@H]1OC(C)=O` is listed with Menin-MLL FL inh: -2.7[11.7 µM]; Sfp inh: -7.0%
# `COc1ccc(NC(=O)N2CCc3nc(COc4ccccc4)c4c(c3C2)CO[C@@H](C)C4)cc1` is listed with Menin-MLL FL inh: -0.2[11.7 µM]; Sfp inh: -0.5%

# Reformatted: entries from further up
Menin-MLL FL inh | Sfp inh | SMILES
-6.2 | -11.5% | CN1CCC(=O)N(C(CSc2ccc(Br)cc2)Cc2ccccc2)CC1 (stereo not given)
1.6 | 8.2% | CCC(C(=O)OCC(=O)Nc1cccc(S(=O)(=O)NC2=NCCCCC2)c1)c1ccccc1 (stereo not given)

# (listing goes on)
# Each structure is followed by: Menin-MLL FL inh	Sfp inh
- Cc1nc(SCc2nnc(-c3ccc(Cl)cc3)o2)c2c3c(sc2n1)CCC3
  5.0	-10.0%
- CCCCCCCCCCCCCCCC(N)=O
  0.9	10.3%
- Cc1cc2c(n1-c1ccc(C(=O)O)cc1)CCCCC2
  ?	-13.0%
- O=C1C[C@H](c2ccc3ccccc3c2)N1S(=O)(=O)c1ccccc1[N+](=O)[O-]
  0.9	-8.7%
- Cc1ccc(S(=O)(=O)NCl)cc1
  3.1	5.62µM*
- COc1cccc([C@@H]2Oc3ccc(OC)cc3/C(=N/O[C@@H](C)c3cn([C@H]4COC[C@H]4O)nn3)[C@@H]2O)c1
  -0.2[11.7 µM]	0.7%
- Cc1cccc(N=Nc2c(C)[nH]n(C(N)=S)c2=O)c1C
  0.2	-4.9%
- O=C1C[C@@H](O)[C@@H](O)[C@H]2[C@@H]3C(=O)N(c4cccc(Oc5ccccc5)c4)C(=O)[C@@H]3CC[C@H]12
  0.5&0.4[11.7 µM]	-7.8%&11.0%
- CCOc1ccccc1-c1nc2c(C(C)(C)C)nn(C)c2c(=O)[nH]1
  -1.1	16.1%
- COC(=O)C1=C(C)N(CC2CC2)C(=O)N[C@H]1CCc1ccccc1
  -4.8	-16.3%
- COC(=O)c1ccccc1C[C@]1(C(=O)OC)C=C[C@H](C)[C@@H](c2ccccc2)N1C(=O)C(F)(F)F
  -3.6	-18.7%
- C1CCN(c2nc(N3CCCC3)nc(N3CCNCC3)n2)C1
  5.3	4.9%
- CCCn1c(C)nc2c(N3CCC(N4CCN(C)CC4)CC3)nc(C)nc21
  3.4	19.4%
- O=Nc1c2nc3ccccc3n(O)c-2c2ccccc12
  -1.9	-6.6%
- O=C1N=c2ccc(Br)cc2=C1c1sc(=O)[nH]c1O
  -2.3	-28.9%
- Nc1nc2c(cnn2CCc2ccccc2)c2nc(-c3ccco3)nn12
  0.6	13.6%
- CC[C@]1(O)C[C@@H]2CN(CCc3c([nH]c4ccccc34)[C@](C(=O)OC)(c3cc4c(cc3OC)N(C)[C@H]3[C@](O)(C(=O)OC)[C@@H](C(=O)OC)[C@@]5(CC)C=CCN6CC[C@@]43[C@@H]65)C2)C1
  ?	-23.8%
- CC(C)N1CCN(c2ccc(OC[C@@H]3CO[C@@](Cn4cncn4)(c4ccc(Cl)cc4Cl)O3)cc2)CC1
  3.2[24.8 µM]	15.2%
- C=C1CCN(C(CC(C)C)C(=O)NCc2ccc(OC)cc2)S(=O)(=O)c2ccccc21 (stereo not given)
  2.7	-4.6%
- C[C@H]1CCC[C@@]2(C)CCCC[C@]12O
  -3.1	-11.0%

# Five of the compounds above, with tabs.
compound	Menin-MLL FL inh	Sfp inh
COc1cccc([C@@H]2Oc3ccc(OC)cc3/C(=N/O[C@@H](C)c3cn([C@H]4COC[C@H]4O)nn3)[C@@H]2O)c1	-0.2[11.7 µM]	0.7%
CCCn1c(C)nc2c(N3CCC(N4CCN(C)CC4)CC3)nc(C)nc21	3.4	19.4%
COC(=O)c1ccccc1C[C@]1(C(=O)OC)C=C[C@H](C)[C@@H](c2ccccc2)N1C(=O)C(F)(F)F	-3.6	-18.7%
Nc1nc2c(cnn2CCc2ccccc2)c2nc(-c3ccco3)nn12	0.6	13.6%
CCCCCCCCCCCCCCCC(N)=O	0.9	10.3%

# Quoted from the listing (two entries):
# Each structure is followed by: Menin-MLL FL inh	Sfp inh
- Cc1nc(SCc2nnc(-c3ccc(Cl)cc3)o2)c2c3c(sc2n1)CCC3
  5.0	-10.0%
- CCCCCCCCCCCCCCCC(N)=O
  0.9	10.3%

# Later entries:
# Each structure is followed by: Menin-MLL FL inh	Sfp inh
- COc1ccc2c(c1)C(=O)[C@@H](OC(=O)N[C@H](C)C1CCCCC1)[C@H](c1ccc(OC)c(Br)c1)O2
  -2.6	1.8%
- COc1ccc(S(=O)(=O)N2CCCCCC2)cc1C(=O)OCC(=O)Nc1cc(C)on1
  -1.2	3.2%
- O=C(Sc1nnnn1C1CCCCC1)c1cccs1
  0.8	35.5µM*
- NS(=O)(=O)c1nn2cc(-c3ccccc3)nc2s1
  -4.3	6.1%
- COc1cc([C@@H]2c3cc4c(cc3[C@@H](O)[C@@H](CO)[C@@H]2CO)OCO4)cc(OC)c1O[Si](C)(C)C(C)(C)C
  1.4	22.9%
- CC(C)C[C@@H](CC(=O)N[C@H](CC(=O)N[C@@H]1CCCC[C@H]1C(=O)N[C@H](CC(=O)N[C@@H](CCC(=O)O)CC(=O)O)CC(C)C)C(C)C)NC(=O)[C@@H]1CCCC[C@H]1N
  -0.1	-15.5%
- N[C@H](C(=O)O)c1ccc(O)c(C(=O)O)c1
  ?	20µM*
- O=c1c(O)c(-c2ccc(O)c(O)c2)oc2ccccc12
  ?	?
- O=c1cc(CO)occ1O
  -2.7&-10.4	-11.8%&-27.1%
- CCCNC(=O)OC[C@@H]1O[C@H](CCO/N=C\C[C@H]2C=C[C@H](OC(C)=O)[C@@H](COC(C)=O)O2)C=C[C@@H]1Oc1ccc(OC)cc1
  -1.8[11.7 µM]	29.4%
- Cc1ccc2nc3c(cc(C(=O)NCc4cccnc4)c(=N)n3C(C)C)c(=O)n2c1
  1.0	13.6%
- Cc1cc2c(OCC(CNC(C)(C)C)OC(=O)c3ccccc3)cccc2[nH]1 (stereo not given)
  3.5	9.4%
- COc1cc(OC)c2c(c1)OC(c1ccccc1)CC2=O (stereo not given)
  -5.9	-7.4%
- C[C@]12CC[C@@H]3c4ccc(O)cc4CC[C@H]3[C@@H]1C[C@H](O)C2O (stereo not given in full)
  -0.3	1.6%
- O=C(Cc1ccccc1)N/N=C/c1ccccc1F
  -0.6	19.2%
- Cn1c(=O)c2c(nc(SCC(=O)N3CCc4ccccc43)n2Cc2ccccc2)n(C)c1=O
  5.1	8.8%
- C[C@@]12C=Cc3occc3C1CC[C@@]13C[C@@H](CCC12)[C@@](O)(CO)C3 (stereo not given in full)
  12.9	-27.7%
- Cc1cc(C)c2c(=O)n(CC(=O)N3CCC(Cc4ccccc4)CC3)sc2n1
  2.1	7.94µM*
- O=C(CSCc1ccco1)c1ccc(Cl)s1
  1.1	-29.2%
- O=C(Nc1ccc(Cl)cc1)/C(=C/c1ccc([N+](=O)[O-])cc1)c1nc2ccccc2s1
  0.8	5.7%

# Not all compounds are listed. The share of hits here may be higher or lower than overall.
